CatL inh: inhibitors of human cathepsin L; purified cathepsin L, fluorogenic substrate, fluorescence; inhibition, %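 (tested at 10 µM)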; 58,000 tested, 0.17% active; in the data active = inhibition above about 45%;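 also: 0% = enzyme with no compound and 100% = no enzyme blank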
CatB inh: blocks human cathepsin B protease activity; purified cathepsin B, fluorogenic substrate, fluorescence; inhibition, %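 (tested at 10 µM)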; 63,000 tested, 0.1% active; AID 453; in the data active = inhibition above about 21%;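 also: 0% = enzyme with no compound and 100% = no enzyme blank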
CatS inh: human cathepsin S inhibition; inhibition, %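 (tested at 5 µM per compound within 10-compound mixtures)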; 62,000 tested, 0.06% active; recombinant cathepsin S, AMC dipeptide fluorescence, pooled mixtures; AID 501; in the data active = inhibition above about 32%, passing the limit was not always enough;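 also: 0% = enzyme without compound and 100% = blank without enzyme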
Target sequence (P25774 115-331 limits assumed): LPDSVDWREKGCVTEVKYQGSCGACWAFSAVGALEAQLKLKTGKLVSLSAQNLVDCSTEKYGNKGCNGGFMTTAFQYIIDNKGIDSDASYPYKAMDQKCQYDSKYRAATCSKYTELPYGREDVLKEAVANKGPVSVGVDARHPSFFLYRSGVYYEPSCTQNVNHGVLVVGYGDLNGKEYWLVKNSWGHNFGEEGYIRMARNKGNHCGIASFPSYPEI
Cathepsin G inh: inhibitors of human cathepsin G; P08311; purified enzyme, AMC-tetrapeptide fluorescence, pooled mixtures; 62,000 tested, 0.2% active; inhibition, % at 5 µM (by protocol);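 active = inhibition above 20% in each of the two mixture wells holding the compound; inactive = inhibition of 20% or less in either well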;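 also: 0% = enzyme control without mixture and 100% = blank lacking enzyme; strong numbers were not always called active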
AP ELISA ortho: alternative pathway complement inhibition, orthogonal assay. Human serum alternative complement pathway, LPS-coated ELISA, C3 deposition; tested in compound mixtures. inhibition, % at 5 µM. 62,000 tested, 0.08% active. AID 1235;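 active = inhibition above 30% in each of the two pooled mixtures holding the compound, so the lower value exceeds 30%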;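 also: 0% = serum in Mg-EGTA without compound and 100% = EDTA serum blank; some compounds past the cut are filed as inactive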
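Test system – human serum alternative complement pathway, C3 deposition on LPS-coated wells · Buffer or medium – diluted human serum in Mg2+-EGTA GVB++ · Compound dosing – 5 µM each compound, pools of ten, 50 µM per pool · Schedule – 1 h serum-compound exposure at 37 °C · Measured by – Anti-C3 ELISA, OD 450 nm · Read-out basis – percent inhibition of C3 deposition onto LPS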
CatB mix inh: human cathepsin B inhibition by mixtures; P07858; 62,000 tested, 0.06% active; AID 488; Purified cathepsin B, AMC dipeptide fluorescence, compound mixtures; inhibition, %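 (ten-compound pools at 5 µM per compound and 50 µM total)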; in the data active = inhibition above about 22%, passing the limit was not always enough;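 also: 0% = enzyme without compound and 100% = no enzyme blank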
FXIa inh mix: inhibitors of human coagulation factor XIa, pooled mixtures | AID 680 | 62,000 tested, 0.19% active | inhibition, % at 5 µM | purified FXIa, fluorogenic substrate; in the data active = inhibition above about 20%, passing the limit was not always enough;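 also: each value is inhibition by a whole ten-compound pool holding the compound; 0% = enzyme with no mixture and 100% = wells lacking enzyme; strong numbers were not always called active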
C1s inh: blocks human complement C1s protease activity. P09871. purified C1s, fluorogenic AMC substrate, pooled mixtures. mean inhibition % of two 10-compound mixtures (hits give high values), % at 5 µM (by protocol). 62,000 tested, 0.16% active;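 active = inhibition above 20% in each of the two 10-compound mixture wells holding the compound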;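 also: 0% = enzyme wells lacking compound mixture and 100% = no-enzyme blank wells; some compounds called inactive have numbers as strong as hits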
Target sequence (P09871 16-437 limits assumed): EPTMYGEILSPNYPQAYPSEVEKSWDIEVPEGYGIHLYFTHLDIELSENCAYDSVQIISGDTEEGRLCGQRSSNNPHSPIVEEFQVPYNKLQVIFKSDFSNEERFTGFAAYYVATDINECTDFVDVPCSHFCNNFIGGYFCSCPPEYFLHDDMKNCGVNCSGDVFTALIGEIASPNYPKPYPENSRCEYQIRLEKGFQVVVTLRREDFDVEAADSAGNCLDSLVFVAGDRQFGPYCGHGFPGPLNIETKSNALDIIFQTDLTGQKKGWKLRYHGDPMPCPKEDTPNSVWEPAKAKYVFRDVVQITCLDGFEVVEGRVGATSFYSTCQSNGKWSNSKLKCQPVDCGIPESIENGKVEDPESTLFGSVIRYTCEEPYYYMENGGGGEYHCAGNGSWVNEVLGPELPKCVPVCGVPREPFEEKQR
Target sequence (P09871 438-688 limits assumed): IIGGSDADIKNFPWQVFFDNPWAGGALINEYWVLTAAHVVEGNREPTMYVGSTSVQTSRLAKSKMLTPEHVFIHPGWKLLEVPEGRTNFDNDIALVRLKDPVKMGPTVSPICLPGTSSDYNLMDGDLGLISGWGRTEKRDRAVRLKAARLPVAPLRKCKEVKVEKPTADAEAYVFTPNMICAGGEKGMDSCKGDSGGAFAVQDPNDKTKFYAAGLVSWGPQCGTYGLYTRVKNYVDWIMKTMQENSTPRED
Numbers without * were called inactive; nt = no result given. This is a subset, so the mix of outcomes need not match the whole.

Every second line gives: CatL inh	CatB inh	CatS inh	Cathepsin G inh	AP ELISA ortho	CatB mix inh	FXIa inh mix	C1s inh
COC(=O)c1ccc(C2/C(=C(\O)c3cccc(OC)c3)C(=O)C(=O)N2CCCN2CCOCC2)cc1 (configuration not stated)
  11.3	0.7	0.5	12.0	18.2	6.8	10.4	18.1
O=c1c2ccccc2nc(-c2ccccc2)n1CCCN1CCOCC1
  15.7	4.3	-2.5	5.4	1.5	4.4	-2.7	-0.3
Cc1sc2c(c1C)c(=O)n(-c1ccccc1)c1nncn21
  nt	2.9	-2.4	2.6	9.7	0.0	0.1	-2.1
COCCCN1C(=O)C(=O)/C(=C(/O)c2ccc(OC)cc2)C1c1ccc(O)c(OC)c1 (configuration not stated)
  10.8	4.5	-11.1	0.9	11.4	-4.6	4.7	2.4
COc1cc(CO)cc(-c2cc(CO)cc(OC)c2OC)c1OC
  2.6	7.5	16.7	8.5	1.6	6.3	5.1	15.2
Cc1cccc(N2CCN(C(=O)c3ccc(CS(=O)(=O)c4ccccc4C)o3)CC2C)c1 (configuration not stated)
  20.7	0.6	1.8	-7.7	-4.1	-4.5	-7.7	-35.3
COC(=O)c1cnn(C(=O)c2cc(OC)ccc2Br)c1N
  2.5	1.3	-1.0	12.5	24.1	3.9	8.2	17.8
COc1ccccc1NC(=O)C1=C(C)Nc2nnnn2C1c1ccncc1 (configuration not stated)
  -3.5	3.2	-22.2	-28.1	9.1	-14.3	11.5	-167.6
COc1ccccc1N(CC(O)CN1C(=O)NC(C)(C)C1=O)S(=O)(=O)c1ccc(C)cc1 (configuration not stated)
  -3.4	-3.2	-6.6	7.9	-3.7	-0.9	1.0	7.0
Cc1cc(C)c2nc(N3CCN(C)CC3)c(C#N)cc2c1
  -21.6	-5.9	-2.4	-4.7	15.0	2.1	4.5	-17.6
O=C(CSc1nc(-c2ccco2)cc(C(F)(F)F)n1)NCCCn1ccnc1
  -12.0	1.4	-6.4	5.8	9.0	2.8	10.7	13.3
O=C(NCCCNC(=O)c1ccccn1)c1ccccn1
  13.6	0.0	-23.3	-24.7	5.5	-14.6	-38.1	-208.1
Cc1cc(-c2nsc(=O)o2)c(S(C)(=O)=O)s1
  1.7	0.9	-6.1	16.6	18.3	4.8	8.5	19.2
CCN(CC)CCCN1C(=O)C(=O)/C(=C(/O)c2ccc3c(c2)OCCO3)C1c1ccco1 (configuration not stated)
  16.7	2.7	9.6	-1.0	5.7	1.0	5.1	-2.8
COc1cccc(-c2nc(-c3ccc(NC(=O)Cc4ccccc4OC)cc3)no2)c1
  4.6	0.6	-13.1	8.6	10.3	6.3	4.8	16.9
COc1ccc(-c2nc(-c3ccc(NC(=O)c4ccc(Br)o4)cc3)no2)cc1OC
  -8.6	-1.7	-5.0	-4.1	22.1	-1.9	1.6	-3.4
COc1ccc(NC(=O)c2cc(S(=O)(=O)N3CCCCC3)ccc2N2CCCCC2)cn1
  16.2	7.5	23.1	-7.3	-6.1	6.2	10.0	-25.3
COc1ccc(-c2nc3ccccc3o2)cc1NC(=O)c1ccc(Br)o1
  -8.0	4.3	-0.9	3.4	15.8	0.9	-0.4	-2.5
Cc1cnn(C(=S)NCc2ccc(Cl)cc2)c1
  7.2	-2.0	-5.6	-9.1	16.6	-2.0	-8.6	-120.9
COc1ccc(S(=O)(=O)Cc2ccc(C(=O)N3CCN(c4cccc(C)c4)C(C)C3)o2)cc1 (configuration not stated)
  nt	0.8	4.8	6.3	5.7	1.5	-0.9	-0.7
C=CCn1c(N)cc(=O)nc1SCC(=O)Nc1ccccc1
  -10.1	-4.1	-11.2	-2.0	17.5	1.0	2.3	-5.4
COc1ccc(-c2nc(-c3ccc(NC(=O)c4ccncc4)cc3)no2)cc1OC
  16.7	-2.8	2.4	-4.9	11.6	3.8	3.3	-26.4
COC(=O)c1ccc(CSc2nncn2C)cc1
  35.3	2.2	-0.9	10.6	13.8	6.6	5.4	8.0
COc1ccc(C2=NOC(C(=O)Nc3c(C)n(C)n(-c4ccccc4)c3=O)C2)cc1OC (configuration not stated)
  nt	3.4	8.3	-4.9	14.0	1.2	-2.3	-14.4
COC(=O)C1CN(S(=O)(=O)c2ccc(C)cc2)CCN1S(=O)(=O)c1ccc(C)cc1 (configuration not stated)
  4.0	0.3	-3.4	-10.6	-12.9	-2.9	0.8	-21.1
COc1ccc(C2=NOC(C(=O)Nc3cc(Br)ccc3O)C2)cc1OC (configuration not stated)
  41.6	-0.3	17.0	24.7	10.8	10.7	24.0	32.7
Cc1cccc(N2C(=O)SC(N(CC(=O)O)c3cccc(C)c3)C2=O)c1 (configuration not stated)
  18.4	8.4	19.0	-4.9	-6.2	1.6	3.2	-12.1
CC1=C(C(=O)Nc2cccnc2)C(c2ccccn2)n2nnnc2N1 (configuration not stated)
  6.0	6.6	13.0	5.0	-3.1	6.0	0.9	-42.5
O=C1c2ccccc2C(=O)N1c1cccc(-c2nc3ccccc3o2)c1
  11.6	2.8	-9.3	4.8	11.0	-6.7	1.8	1.6
Cc1cc(C)c2nc(N3CCCN(C(=O)c4cnccn4)CC3)c(C#N)cc2c1
  -2.3	3.4	1.2	10.4	-2.4	3.9	5.6	7.5

Rewritten tab-delimited: part of the list above
compound	CatL inh	CatB inh	CatS inh	Cathepsin G inh	AP ELISA ortho	CatB mix inh	FXIa inh mix	C1s inh
COc1ccc(-c2nc3ccccc3o2)cc1NC(=O)c1ccc(Br)o1	-8.0	4.3	-0.9	3.4	15.8	0.9	-0.4	-2.5
Cc1cnn(C(=S)NCc2ccc(Cl)cc2)c1	7.2	-2.0	-5.6	-9.1	16.6	-2.0	-8.6	-120.9

Going on with the list.
Every second line gives: CatL inh	CatB inh	CatS inh	Cathepsin G inh	AP ELISA ortho	CatB mix inh	FXIa inh mix	C1s inh
COc1ccc(CC(=O)n2nc(-c3cccnc3)nc2N)cc1
  4.2	5.2	nt	14.7	21.6	13.1	2.3	13.3
CCn1c(CNC(=O)c2ccc(OC)c(OC)c2)nnc1SCC(=O)c1ccc(OC)cc1
  -6.1	-1.0	-2.0	1.2	9.0	6.6	5.5	-25.1
CCOC(=O)Nc1cccc(OCC(=O)Nc2ccc(OC)cc2OC)c1
  -6.1	0.9	-5.1	8.1	27.6	0.3	6.2	12.3
CCn1c(SCC(=O)c2ccc(OC)cc2)nnc1C(C)NC(=O)c1ccc(OC)cc1 (configuration not stated)
  -3.3	5.3	5.6	-1.1	3.8	3.8	-1.3	-1.4
COc1ccc(C(=O)n2cnc(N)n2)cc1
  -0.8	-0.4	-4.4	69.5*	7.6	1.2	15.9	9.3

A different layout for part of the listing above.
CatL inh | CatB inh | CatS inh | Cathepsin G inh | AP ELISA ortho | CatB mix inh | FXIa inh mix | C1s inh | structure
nt | 0.8 | 4.8 | 6.3 | 5.7 | 1.5 | -0.9 | -0.7 | COc1ccc(S(=O)(=O)Cc2ccc(C(=O)N3CCN(c4cccc(C)c4)C(C)C3)o2)cc1 (configuration not stated)
-10.1 | -4.1 | -11.2 | -2.0 | 17.5 | 1.0 | 2.3 | -5.4 | C=CCn1c(N)cc(=O)nc1SCC(=O)Nc1ccccc1
16.7 | -2.8 | 2.4 | -4.9 | 11.6 | 3.8 | 3.3 | -26.4 | COc1ccc(-c2nc(-c3ccc(NC(=O)c4ccncc4)cc3)no2)cc1OC
35.3 | 2.2 | -0.9 | 10.6 | 13.8 | 6.6 | 5.4 | 8.0 | COC(=O)c1ccc(CSc2nncn2C)cc1
nt | 3.4 | 8.3 | -4.9 | 14.0 | 1.2 | -2.3 | -14.4 | COc1ccc(C2=NOC(C(=O)Nc3c(C)n(C)n(-c4ccccc4)c3=O)C2)cc1OC (configuration not stated)
4.0 | 0.3 | -3.4 | -10.6 | -12.9 | -2.9 | 0.8 | -21.1 | COC(=O)C1CN(S(=O)(=O)c2ccc(C)cc2)CCN1S(=O)(=O)c1ccc(C)cc1 (configuration not stated)
41.6 | -0.3 | 17.0 | 24.7 | 10.8 | 10.7 | 24.0 | 32.7 | COc1ccc(C2=NOC(C(=O)Nc3cc(Br)ccc3O)C2)cc1OC (configuration not stated)
18.4 | 8.4 | 19.0 | -4.9 | -6.2 | 1.6 | 3.2 | -12.1 | Cc1cccc(N2C(=O)SC(N(CC(=O)O)c3cccc(C)c3)C2=O)c1 (configuration not stated)
6.0 | 6.6 | 13.0 | 5.0 | -3.1 | 6.0 | 0.9 | -42.5 | CC1=C(C(=O)Nc2cccnc2)C(c2ccccn2)n2nnnc2N1 (configuration not stated)
11.6 | 2.8 | -9.3 | 4.8 | 11.0 | -6.7 | 1.8 | 1.6 | O=C1c2ccccc2C(=O)N1c1cccc(-c2nc3ccccc3o2)c1
-2.3 | 3.4 | 1.2 | 10.4 | -2.4 | 3.9 | 5.6 | 7.5 | Cc1cc(C)c2nc(N3CCCN(C(=O)c4cnccn4)CC3)c(C#N)cc2c1
4.2 | 5.2 | nt | 14.7 | 21.6 | 13.1 | 2.3 | 13.3 | COc1ccc(CC(=O)n2nc(-c3cccnc3)nc2N)cc1
-6.1 | -1.0 | -2.0 | 1.2 | 9.0 | 6.6 | 5.5 | -25.1 | CCn1c(CNC(=O)c2ccc(OC)c(OC)c2)nnc1SCC(=O)c1ccc(OC)cc1
-6.1 | 0.9 | -5.1 | 8.1 | 27.6 | 0.3 | 6.2 | 12.3 | CCOC(=O)Nc1cccc(OCC(=O)Nc2ccc(OC)cc2OC)c1

High-throughput results as filed in PubChem.
